Bioassay records: PubChem, Johns Hopkins Ion Channel Center
KCNQ2 inh = KCNQ2 potassium channel inhibitors, primary screen, cell-based, CHO-K1, FluxOR thallium flux, B-score (AID 2156); Potassium voltage-gated channel subfamily KQT member 2 (Rattus norvegicus), O88943; 20 min; hits give low values; only compounds with negative scores are shown here; some inactives read as strong as hits; B-score at 10 µM; 310,000 compounds, 1.1% hits;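 active = fluorescence ratio B-score at most minus 3 library SDs, with starting brightness B-score within 2 library SDs, cut at about -5.5 in these data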
Target sequence (O88943 whole entry, looked up): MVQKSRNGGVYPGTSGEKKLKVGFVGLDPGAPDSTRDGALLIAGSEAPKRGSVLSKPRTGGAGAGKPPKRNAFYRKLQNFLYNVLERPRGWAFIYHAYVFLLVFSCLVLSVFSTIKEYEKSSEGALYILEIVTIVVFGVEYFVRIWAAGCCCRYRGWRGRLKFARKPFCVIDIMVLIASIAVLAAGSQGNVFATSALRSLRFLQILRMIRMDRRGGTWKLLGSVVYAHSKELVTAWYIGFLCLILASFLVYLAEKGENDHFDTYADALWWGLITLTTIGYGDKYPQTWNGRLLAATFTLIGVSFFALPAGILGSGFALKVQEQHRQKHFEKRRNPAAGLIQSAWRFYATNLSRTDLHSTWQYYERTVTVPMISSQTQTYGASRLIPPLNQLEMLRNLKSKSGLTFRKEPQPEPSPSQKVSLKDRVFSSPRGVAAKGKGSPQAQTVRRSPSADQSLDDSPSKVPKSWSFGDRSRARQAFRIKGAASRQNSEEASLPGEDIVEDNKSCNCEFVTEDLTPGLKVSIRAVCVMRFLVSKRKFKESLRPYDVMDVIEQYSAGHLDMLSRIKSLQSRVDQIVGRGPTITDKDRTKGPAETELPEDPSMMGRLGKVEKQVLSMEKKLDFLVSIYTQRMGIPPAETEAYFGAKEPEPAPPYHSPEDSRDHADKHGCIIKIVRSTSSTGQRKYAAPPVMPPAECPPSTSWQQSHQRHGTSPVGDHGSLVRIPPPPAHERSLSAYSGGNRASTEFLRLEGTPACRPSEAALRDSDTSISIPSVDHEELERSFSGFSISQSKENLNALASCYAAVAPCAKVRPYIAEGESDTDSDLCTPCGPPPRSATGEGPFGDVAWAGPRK
KCNQ2 inh baseline = recorded beside KCNQ2 inh, whose call it bears; B-score; measured here: initial fluorescence intensity artifact check;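 brightness before thallium and not channel activity; 0 = typical well and far values either way flag optical interference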
The depositor's hits bear a star. This is a subset. The share of hits here may be higher or lower than overall.

For Cc1nn(-c2ccccc2)c(C)c1C(=O)NCc1ccc(S(N)(=O)=O)cc1 the results were KCNQ2 inh inactive and KCNQ2 inh baseline -0.62.
For Clc1cccc(Cl)c1CSc1nnc(-c2sccc2-n2cccc2)o1 the results were KCNQ2 inh inactive and KCNQ2 inh baseline -0.12.
Screening COc1ccc(OCc2nc3c4cc(OC)c(OC)cc4nc(=S)n3[nH]2)cc1 returned KCNQ2 inh inactive and KCNQ2 inh baseline 0.28.
Screening Cc1cccc(N2CCN(c3cc(C)nc4nnnn34)CC2C)c1 (configuration not stated) returned KCNQ2 inh inactive and KCNQ2 inh baseline -2.4.
`Cc1ccc(OCC(=O)c2cc(C)c(C)cc2C)c([N+](=O)[O-])n1` gave KCNQ2 inh inactive and KCNQ2 inh baseline -0.25.
For O=C(NCCCn1ccnc1)c1cccc(S(=O)(=O)Nc2ccccc2F)c1 the results were KCNQ2 inh inactive and KCNQ2 inh baseline 2.5.
Cc1nc2c(C)cccn2c1C(=O)c1ccccc1 was read as KCNQ2 inh inactive and KCNQ2 inh baseline 0.28.
For CC(=O)c1ccc(NC(=O)C(C)NCc2ccc(Cl)cc2)cc1 (configuration not stated) the results were KCNQ2 inh inactive and KCNQ2 inh baseline 0.13.
`Cc1cc(=O)oc2cc(OCC(=O)N/N=C/c3ccccc3O)ccc12` gave KCNQ2 inh inactive and KCNQ2 inh baseline 0.36.
O=C(Nc1ccc(Cl)cn1)c1cccc(OCc2ccccc2)c1 was read as KCNQ2 inh inactive and KCNQ2 inh baseline 0.8.
`CCOC(=O)c1cnc(-n2nc(C)cc2C)nc1N1CC(C)OC(C)C1` (configuration not stated) gave KCNQ2 inh inactive and KCNQ2 inh baseline 0.12.
For NNC(=O)[C@H]1C[C@@H]1c1ccccc1 the results were KCNQ2 inh inactive and KCNQ2 inh baseline 0.1.
For COc1cc(C(=O)O[C@H]2CC(C)=CC[C@@]3(C)CC[C@@](O)(C(C)C)[C@H]23)ccc1O the results were KCNQ2 inh inactive and KCNQ2 inh baseline 0.11.
For COc1ccc(/C(N)=N/OC(=O)Cc2cccs2)cc1 the results were KCNQ2 inh -7* and KCNQ2 inh baseline 0.03*.
Screening Cc1cc(NC(=O)CCN2C(=O)C3C4C=CC(C4)C3C2=O)c2ccccc2n1 (configuration not stated) returned KCNQ2 inh inactive and KCNQ2 inh baseline -1.6.
`CC(C)(C)NC(=O)C(c1ccc(F)cc1)N(CCc1ccccc1)C(=O)c1ccn[nH]1` (configuration not stated) gave KCNQ2 inh inactive and KCNQ2 inh baseline 0.19.
`Cc1nn(CC(=O)NCCCN2CCC(Cc3ccccc3)CC2)c(=O)c2cc(-c3ccccc3)nn12` gave KCNQ2 inh inactive and KCNQ2 inh baseline -0.04.
O=C(CN1CCC(C(=O)c2ccc3c(c2)OCCO3)CC1)NCc1ccccc1 was read as KCNQ2 inh inactive and KCNQ2 inh baseline -0.98.
`O=C(/C=C/c1cccs1)NC(=S)Nc1ccccc1` gave KCNQ2 inh inactive and KCNQ2 inh baseline -0.44.
CN(CC(=O)Nc1ccc(Br)cc1)Cc1ccccc1 was read as KCNQ2 inh inactive and KCNQ2 inh baseline -0.5.
Screening Cc1ccc(-c2noc(CN(C(=O)c3cccs3)C(C)C)n2)cc1 returned KCNQ2 inh inactive and KCNQ2 inh baseline 0.22.
For COc1ccc(C(=O)C[n+]2ccc(-c3nnc4n3CCCCC4)cc2)cc1 the results were KCNQ2 inh inactive and KCNQ2 inh baseline 0.3.
C/C(=N\NC(=O)c1nnn(-c2nonc2N)c1CN1CCCCCC1)c1ccc(Br)cc1 was read as KCNQ2 inh inactive and KCNQ2 inh baseline -1.6.
Screening Cc1ccc(NC(=O)CN(c2cc(C)cc(C)c2)S(=O)(=O)c2c(C)noc2C)nc1 returned KCNQ2 inh inactive and KCNQ2 inh baseline -0.24.
c1ccc(-c2nc3ccccc3nc2N2CCOCC2)cc1 was read as KCNQ2 inh inactive and KCNQ2 inh baseline 0.02.
For CN(C)S(=O)(=O)c1cccc(NC(=O)c2cc(-c3cccs3)nc3ccccc23)c1 the results were KCNQ2 inh inactive and KCNQ2 inh baseline -1.1.
COc1ccc2c(c1)CCCC21NC(=O)N(CC(N)=O)C1=O (configuration not stated) was read as KCNQ2 inh inactive and KCNQ2 inh baseline -0.22.
`CCOc1ccc(N(C(=O)Nc2ccccc2)C2=NCCC2)cc1` gave KCNQ2 inh inactive and KCNQ2 inh baseline -4.1.
Cc1ccc(C(=O)COC(=O)CN2C(=O)C3CC=CCC3C2=O)cc1[N+](=O)[O-] (configuration not stated) was read as KCNQ2 inh inactive and KCNQ2 inh baseline 0.16.
For O=C(Nc1ccccn1)c1ccco1 the results were KCNQ2 inh inactive and KCNQ2 inh baseline 2.4.
`COc1ccccc1C(=O)Nc1cccc(Oc2c(F)c(F)c(F)c(F)c2F)c1` gave KCNQ2 inh inactive and KCNQ2 inh baseline -0.27.
For CCN(CC(=O)Nc1ccc(NC(C)=O)cc1)C(=O)c1cccc(Oc2ccccc2)c1 the results were KCNQ2 inh inactive and KCNQ2 inh baseline -0.78.
`COc1ccc(-c2cc(C(=O)Nc3ccc(S(=O)(=O)Nc4ncccn4)cc3)c3ccccc3n2)cc1` gave KCNQ2 inh inactive and KCNQ2 inh baseline -0.65.
C=CCOc1ccc(C2C(C(=O)c3ccc(C)o3)=C(O)C(=O)N2Cc2cccnc2)cc1 (configuration not stated) was read as KCNQ2 inh inactive and KCNQ2 inh baseline -0.39.
CCn1c(SCC(=O)N2CCCc3ccccc32)nnc1-c1cccs1 was read as KCNQ2 inh inactive and KCNQ2 inh baseline 0.15.
CN1CCN(C(=O)c2cc3nc(-c4ccco4)cc(C(F)(F)F)n3n2)CC1 was read as KCNQ2 inh inactive and KCNQ2 inh baseline 1.7.
`CC1=C(C(=O)OCCOC(C)C)C(c2cccc3ccccc23)NC(=O)N1` (configuration not stated) gave KCNQ2 inh inactive and KCNQ2 inh baseline 0.06.
Screening Cc1ccccc1NS(=O)(=O)c1ccc(C(=O)N2CCCC2)cc1 returned KCNQ2 inh inactive and KCNQ2 inh baseline 2.
CC1CCCCN1C(=O)CCNC(=O)Cn1cnc2ccccc2c1=O (configuration not stated) was read as KCNQ2 inh inactive and KCNQ2 inh baseline 1.2.
`Cc1cc(C)c2nc(SCC(=O)NC(=O)c3cccn3C)cc(C)c2c1` gave KCNQ2 inh inactive and KCNQ2 inh baseline -0.07.
O=C(N=Nc1c(O)[nH]c2ccccc12)c1ccccc1NS(=O)(=O)c1cccs1 was read as KCNQ2 inh inactive and KCNQ2 inh baseline -0.2.
COc1cccc(/C(C)=N/Nc2ncc(Cl)cc2Cl)c1 was read as KCNQ2 inh inactive and KCNQ2 inh baseline -0.72.
`COc1cc(OC)c(C(=O)Nc2ccc3ccccc3c2)cc1OC` gave KCNQ2 inh inactive and KCNQ2 inh baseline -0.16.
For CC(=O)c1cc(-c2ccccc2)n(CC(=O)Nc2cccc(C)c2C)c1C the results were KCNQ2 inh inactive and KCNQ2 inh baseline 0.65.
`Cc1cccc(C(=O)Nc2ccc(N3CCN(S(C)(=O)=O)CC3)cc2)c1` gave KCNQ2 inh inactive and KCNQ2 inh baseline 1.9.
Screening O=c1c2ccccc2n2c(-c3ccc(F)cc3)nnc2n1Cc1ccccc1 returned KCNQ2 inh inactive and KCNQ2 inh baseline -0.02.
For CCc1ccc(-c2nc(CN3CCC(C(=O)NCc4ccc(F)cc4)CC3)c(C)o2)cc1 the results were KCNQ2 inh inactive and KCNQ2 inh baseline -1.5.
Screening CC(C)C[C@H](NC(=O)c1nc[nH]c1C(=O)NCCCCCNC(=O)OC(C)(C)C)C(=O)OCc1ccccc1 returned KCNQ2 inh inactive and KCNQ2 inh baseline 1.8.
Screening COc1ccc(F)c(CN(C)CC2CCCN(CCc3ccc(F)cc3)C2)c1 (configuration not stated) returned KCNQ2 inh inactive and KCNQ2 inh baseline 0.01.
Screening COC(/C=C/Nc1ccc(C)cc1)=C(C#N)C#N returned KCNQ2 inh inactive and KCNQ2 inh baseline 0.17.
For C=C1CCN([C@@H](Cc2ccccc2)C(=O)O)S(=O)(=O)c2ccccc21 the results were KCNQ2 inh inactive and KCNQ2 inh baseline 0.25.
`COc1ccc(-c2c(-c3ccc(OCC(=O)NN)cc3O)n[nH]c2C)cc1OC` gave KCNQ2 inh inactive and KCNQ2 inh baseline 0.15.
Screening O=C1CN(C(=O)COC(=O)CNC(=O)c2ccc(Br)o2)c2ccccc2N1 returned KCNQ2 inh inactive and KCNQ2 inh baseline 0.65.
For O=S(=O)(Nc1nccs1)c1ccc(Nc2nnc(-c3ccccc3)c3ccccc23)cc1 the results were KCNQ2 inh inactive and KCNQ2 inh baseline -0.07.
For COc1ccc(CC(NC(C)=O)C(=O)NC2CCN(c3nnnn3-c3ccccc3)CC2)cc1OC (configuration not stated) the results were KCNQ2 inh inactive and KCNQ2 inh baseline -0.04.
For COc1ccccc1CNC(=O)C(C)Sc1ccsc1[N+](=O)[O-] (configuration not stated) the results were KCNQ2 inh inactive and KCNQ2 inh baseline 0.93.
Screening O=C1C[C@H]2[C@H](CO)[C@@H](OC(=O)c3ccc(-c4ccccc4)cc3)C[C@H]2O1 returned KCNQ2 inh inactive and KCNQ2 inh baseline 1.9.
For COc1cc(/C=C2/SC(=S)N(CC(=O)NC(C)(C)C)C2=O)cc(OC)c1OC the results were KCNQ2 inh inactive and KCNQ2 inh baseline -2.2.
For CCOC1=NN(c2ccc(Cl)cc2)C(=O)/C1=C\N(C)C the results were KCNQ2 inh inactive and KCNQ2 inh baseline 2.9.
`COC(=O)CNc1n[nH]c(=S)[nH]c1=O` gave KCNQ2 inh inactive and KCNQ2 inh baseline 0.95.
`COc1ccc(S(=O)(=O)N2CCC3(CC2)OCCN3S(=O)(=O)c2c(C)cc(C)cc2C)cc1` gave KCNQ2 inh inactive and KCNQ2 inh baseline -1.2.
Screening CCn1ncc(CN2CCCC(C(=O)Nc3cccc(-c4cc5ccccc5[nH]4)c3)C2)c1C (configuration not stated) returned KCNQ2 inh inactive and KCNQ2 inh baseline 0.29.
For Cc1ccccc1C1CCCN(Cc2nc(CC3CC3)no2)C1 (configuration not stated) the results were KCNQ2 inh inactive and KCNQ2 inh baseline -0.68.
For Cc1ccc(NC(=O)CSC2=C(C#N)C(c3ccco3)C3=C(CC(C)(C)CC3=O)N2)cc1 (configuration not stated) the results were KCNQ2 inh inactive and KCNQ2 inh baseline -1.6.
Screening Cc1ccccc1NCC(=O)N/N=C/c1c(C)c(C(=O)c2ccc(Cl)cc2)n2ccccc12 returned KCNQ2 inh inactive and KCNQ2 inh baseline 0.24.
`CCOc1cc(C(=O)N(C)c2ccccc2)cc(OCC)c1OCC` gave KCNQ2 inh inactive and KCNQ2 inh baseline -0.37.
CSc1ccccc1NC(=O)C1CCN(S(C)(=O)=O)CC1 was read as KCNQ2 inh inactive and KCNQ2 inh baseline -0.64.
O=C(O)c1cccc(Cn2c(Cl)c(/C=N/NC(=O)c3ccccc3O)sc2=O)c1 was read as KCNQ2 inh inactive and KCNQ2 inh baseline -0.34.
Screening CCc1cc2c(=O)n(Cc3ccco3)c(SCC(=O)N3CCCc4ccccc43)nc2s1 returned KCNQ2 inh inactive and KCNQ2 inh baseline -1.
Cc1ccc(C2/C(=C(/O)c3ccccc3)C(=O)C(=O)N2CCN2CCOCC2)o1 (configuration not stated) was read as KCNQ2 inh inactive and KCNQ2 inh baseline 1.4.
Screening CCN(C(=O)C1CCN(c2nc(-c3ccc(OC)cc3)no2)CC1)c1ccc(OC)cc1 returned KCNQ2 inh inactive and KCNQ2 inh baseline 1.6.
Cn1c(N)c(C(=O)COC(=O)c2cccs2)c(=O)n(C)c1=O was read as KCNQ2 inh inactive and KCNQ2 inh baseline 0.74.
`O=C(NCc1ccccc1)C1CCCN1C(=O)Nc1ccccc1[N+](=O)[O-]` (configuration not stated) gave KCNQ2 inh inactive and KCNQ2 inh baseline -0.73.
`Clc1ccc(Cn2ccc(-c3ccc4c(c3)OCO4)n2)cc1Cl` gave KCNQ2 inh inactive and KCNQ2 inh baseline 1.2.
`Cc1ccc(SC[C@H](CC(C)C)N2CCN(CCc3ccccc3)CCC2=O)cc1` gave KCNQ2 inh inactive and KCNQ2 inh baseline 0.28.

Compounds shown so far containing bromine (3):
CN(CC(=O)Nc1ccc(Br)cc1)Cc1ccccc1 was read as KCNQ2 inh inactive and KCNQ2 inh baseline -0.5.
C/C(=N\NC(=O)c1nnn(-c2nonc2N)c1CN1CCCCCC1)c1ccc(Br)cc1 was read as KCNQ2 inh inactive and KCNQ2 inh baseline -1.6.
Screening O=C1CN(C(=O)COC(=O)CNC(=O)c2ccc(Br)o2)c2ccccc2N1 returned KCNQ2 inh inactive and KCNQ2 inh baseline 0.65.

(list continues)
`CCOC(=O)c1ccc(NC(=S)Nc2ccc(Cl)cn2)cc1` gave KCNQ2 inh inactive and KCNQ2 inh baseline -0.4.
Cc1nc(NC(=O)COC(=O)C(NC(=O)c2ccco2)C(C)C)c(Cl)cc1Cl (configuration not stated) was read as KCNQ2 inh inactive and KCNQ2 inh baseline -1.2.
For CCOC(=O)/C(C#N)=C/c1cn(CCC(=O)O)nc1-c1ccc(OC)cc1 the results were KCNQ2 inh inactive and KCNQ2 inh baseline -0.85.
Screening COc1ccc(CCNCC(O)COc2ccc(OC)cc2C(C)(C)C)cc1 (configuration not stated) returned KCNQ2 inh inactive and KCNQ2 inh baseline 0.93.

A portion from further up:
`CCOC(=O)c1ccc(NC(=S)Nc2ccc(Cl)cn2)cc1` gave KCNQ2 inh inactive and KCNQ2 inh baseline -0.4.
Cc1nc(NC(=O)COC(=O)C(NC(=O)c2ccco2)C(C)C)c(Cl)cc1Cl (configuration not stated) was read as KCNQ2 inh inactive and KCNQ2 inh baseline -1.2.
For CCOC(=O)/C(C#N)=C/c1cn(CCC(=O)O)nc1-c1ccc(OC)cc1 the results were KCNQ2 inh inactive and KCNQ2 inh baseline -0.85.
Screening COc1ccc(CCNCC(O)COc2ccc(OC)cc2C(C)(C)C)cc1 (configuration not stated) returned KCNQ2 inh inactive and KCNQ2 inh baseline 0.93.
